KCNQ2 block = KCNQ2 potassium channel inhibitors, primary screen, cell-based, CHO-K1, FluxOR thallium flux, B-score (AID 2156); O88943; 20 min; hits give low values; only compounds with negative scores are shown here; some inactives read as strong as hits; B-score at 10 µM; 310,000 compounds, 1.1% hits;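 active = fluorescence ratio B-score at most minus 3 library SDs, with starting brightness B-score within 2 library SDs, cut at about -5.5 in these data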
Target sequence (O88943 whole entry, looked up): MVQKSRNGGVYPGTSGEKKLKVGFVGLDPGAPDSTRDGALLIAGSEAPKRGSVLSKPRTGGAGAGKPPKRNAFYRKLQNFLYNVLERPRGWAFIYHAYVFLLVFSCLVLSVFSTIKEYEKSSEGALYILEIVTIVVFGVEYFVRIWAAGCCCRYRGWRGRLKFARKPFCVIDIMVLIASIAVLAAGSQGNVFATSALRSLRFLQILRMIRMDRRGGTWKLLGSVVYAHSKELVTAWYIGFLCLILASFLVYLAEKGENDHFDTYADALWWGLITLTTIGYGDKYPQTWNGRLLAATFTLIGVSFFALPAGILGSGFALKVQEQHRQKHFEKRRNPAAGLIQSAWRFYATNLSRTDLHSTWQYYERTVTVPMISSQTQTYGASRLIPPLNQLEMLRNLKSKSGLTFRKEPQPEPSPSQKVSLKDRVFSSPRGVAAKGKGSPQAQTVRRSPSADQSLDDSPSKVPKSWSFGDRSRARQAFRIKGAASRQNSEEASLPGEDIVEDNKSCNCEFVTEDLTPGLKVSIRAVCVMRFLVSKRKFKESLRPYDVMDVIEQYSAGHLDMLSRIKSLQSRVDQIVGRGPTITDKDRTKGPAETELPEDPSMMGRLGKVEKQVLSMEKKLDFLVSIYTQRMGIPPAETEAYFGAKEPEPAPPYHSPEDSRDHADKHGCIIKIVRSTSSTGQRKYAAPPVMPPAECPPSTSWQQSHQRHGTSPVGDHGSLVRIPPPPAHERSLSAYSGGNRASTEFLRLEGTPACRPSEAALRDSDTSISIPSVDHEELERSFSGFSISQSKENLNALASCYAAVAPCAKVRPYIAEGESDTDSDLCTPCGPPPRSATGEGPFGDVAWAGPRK
KCNQ2 block baseline = also measured in KCNQ2 block; calls as there; B-score; measured here: initial fluorescence intensity artifact check;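 brightness before thallium and not channel activity; 0 = typical well and far values either way flag optical interference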
Starred values were filed as active, the others as inactive; i = inactive.

SMILES	KCNQ2 block	KCNQ2 block baseline
O=C(O)Cn1nc(-c2ccccc2)c2ccccc2c1=O	i	1
CCNC(=S)N=Nc1c(O)[nH]c2ccc([N+](=O)[O-])cc12	i	-0.06
CCCCCC(=O)Nc1ccc(C(=O)N/N=C/c2ccc([N+](=O)[O-])cc2)cc1	i	2.5
CCOC(=O)c1c(NC(=S)Nc2ccccc2)sc2c1CC(C)(C)SC2	i	-1.4
CC(=O)Oc1ccc2c(=O)c(Oc3ccccc3[N+](=O)[O-])coc2c1	i	0.38
Cc1ccc(-n2c3c(c(O)c(-c4ccccc4)c2=O)C(=O)CC(C)(C)C3)cc1	i	-0.98
O=C(c1ccc2ccccc2c1)N1CCc2ccccc21	i	1.7
COc1ccc(C2/C=C\CN(CC(C)(C)C)CC(=O)N2Cc2ccc(F)cc2)cc1 (stereo unspecified)	i	-0.1
O=C(NNc1cc(Cl)cc(Cl)c1)c1cccs1	i	0.01
Cc1nc([N+](=O)[O-])c(C(=O)OCc2ccccc2F)n1C	i	0.09
COC(=O)Nc1ccc(OC)c(OC)c1	i	0.59
COC(=O)c1cc(=O)n(Cc2ccco2)c(=Nc2ccc(F)c(Cl)c2)s1	i	1.1
Cc1ccccc1-n1c(-c2ccncc2)n[nH]c1=S	i	-1.1
CCOC(=O)C1CCN(Cc2cc(C(C)(C)C)c(O)c(C(C)(C)C)c2)CC1	i	-1.4
CCc1ccccc1NC(=O)C1(S(=O)(=O)c2ccc(C)cc2)CC1	i	-1.1
O=S1(=O)CCOC[C@H](c2ccccc2)N1Cc1ccccc1F	i	-0.07
COc1ccccc1Oc1c(C)oc2c(CN3CCN(CCO)CC3)c(O)ccc2c1=O	i	1.6
CC(=O)c1cc(-c2ccccc2)n(CCC(=O)NC2CCCCCC2)c1C	i	-1.2
O=S(=O)(NC1CCCCC1N1CCOCC1)c1ccc(Cl)cc1 (stereo unspecified)	i	-0.51
CCOC(=O)C1C(=O)NCC2CCCC21 (stereo unspecified)	i	0.35

19 successive compounds from above, for reference:
SMILES	KCNQ2 block	KCNQ2 block baseline
CCNC(=S)N=Nc1c(O)[nH]c2ccc([N+](=O)[O-])cc12	i	-0.06
CCCCCC(=O)Nc1ccc(C(=O)N/N=C/c2ccc([N+](=O)[O-])cc2)cc1	i	2.5
CCOC(=O)c1c(NC(=S)Nc2ccccc2)sc2c1CC(C)(C)SC2	i	-1.4
CC(=O)Oc1ccc2c(=O)c(Oc3ccccc3[N+](=O)[O-])coc2c1	i	0.38
Cc1ccc(-n2c3c(c(O)c(-c4ccccc4)c2=O)C(=O)CC(C)(C)C3)cc1	i	-0.98
O=C(c1ccc2ccccc2c1)N1CCc2ccccc21	i	1.7
COc1ccc(C2/C=C\CN(CC(C)(C)C)CC(=O)N2Cc2ccc(F)cc2)cc1 (stereo unspecified)	i	-0.1
O=C(NNc1cc(Cl)cc(Cl)c1)c1cccs1	i	0.01
Cc1nc([N+](=O)[O-])c(C(=O)OCc2ccccc2F)n1C	i	0.09
COC(=O)Nc1ccc(OC)c(OC)c1	i	0.59
COC(=O)c1cc(=O)n(Cc2ccco2)c(=Nc2ccc(F)c(Cl)c2)s1	i	1.1
Cc1ccccc1-n1c(-c2ccncc2)n[nH]c1=S	i	-1.1
CCOC(=O)C1CCN(Cc2cc(C(C)(C)C)c(O)c(C(C)(C)C)c2)CC1	i	-1.4
CCc1ccccc1NC(=O)C1(S(=O)(=O)c2ccc(C)cc2)CC1	i	-1.1
O=S1(=O)CCOC[C@H](c2ccccc2)N1Cc1ccccc1F	i	-0.07
COc1ccccc1Oc1c(C)oc2c(CN3CCN(CCO)CC3)c(O)ccc2c1=O	i	1.6
CC(=O)c1cc(-c2ccccc2)n(CCC(=O)NC2CCCCCC2)c1C	i	-1.2
O=S(=O)(NC1CCCCC1N1CCOCC1)c1ccc(Cl)cc1 (stereo unspecified)	i	-0.51
CCOC(=O)C1C(=O)NCC2CCCC21 (stereo unspecified)	i	0.35

Returning to the listing with the two entries that preceded the break.
SMILES	KCNQ2 block	KCNQ2 block baseline
O=S(=O)(NC1CCCCC1N1CCOCC1)c1ccc(Cl)cc1 (stereo unspecified)	i	-0.51
CCOC(=O)C1C(=O)NCC2CCCC21 (stereo unspecified)	i	0.35
COc1ccc(S(=O)(=O)N2CCC(C)CC2)cc1OC	i	0.78
COC(=O)c1ccc(NC(=O)CSc2nnc(CNc3ccc(OC)cc3)n2C)cc1	i	0.24
N=c1c2c(ncn1CCN1CCOCC1)Oc1ccc3ccccc3c1C2c1ccccc1 (stereo unspecified)	i	1.6
O=C(NCCCN1CCOCC1)c1ccc2c(=O)n(-c3ccc(F)c(Cl)c3)c(=S)[nH]c2c1	i	-0.3
CC(C)c1csc(CN2CCCC(CNC(=O)c3cccc4ccccc34)C2)n1 (stereo unspecified)	i	-0.63
CCC1Oc2ccc(C)cc2N(CC(=O)NCCN2CCOCC2)C1=O (stereo unspecified)	i	-0.05
O=C(O)c1cccc(S(=O)(=O)NCc2cccs2)c1	i	1
Cn1c(CCN2CCCCC2)nc2cc(NC(=O)COc3ccc(Cl)cc3)ccc21	i	1.2
CCC1(CC)C(=O)N(C)C(=O)NC1=Nc1ccc(OC)cc1	i	-0.37
CC(C)OCCCNC(=O)C1CCC(CNS(=O)(=O)c2ccccc2)CC1 (stereo unspecified)	i	2.9
O=c1c2c(-c3ccccc3)csc2nc2c3ccccc3c(NCCN3CCOCC3)nn12	i	-0.4
COCc1cc(C)nc(SCC(=O)Nc2ccccc2N2CCOCC2)c1C#N	i	0.05
Cc1ccc(NC(=O)Nc2nnc(-c3ccccc3)o2)cc1	i	-0.1
CCCS(=O)(=O)NCc1cn2c(C)csc2n1	i	-0.5
CSc1ccc(C2Nc3cccc4cccc(c34)N2)cc1	i	-0.24
O=C(OC(C(=O)Nc1ccc(Cl)cc1C(F)(F)F)c1ccccc1)C1=COCCO1 (stereo unspecified)	i	-0.18
Cn1c(Sc2ccccc2Cl)c(C=O)c2ccccc21	i	0.68
CCn1c(CNC(=O)c2ccc(Cl)cc2)nnc1SCC(=O)N1CCOCC1	i	1.3
COc1ccccc1Nc1nc(N)nc(CSC(=S)N2CC(C)CC(C)C2)n1 (stereo unspecified)	i	0.04
Cn1nnc(NC(=O)c2ccco2)n1	i	0.28
O=[N+]([O-])c1ccc(O)c(-c2nn[nH]n2)c1	i	1.1
COc1ccccc1C(=O)O/N=C(\N)c1ccccc1Cl	i	0.53
COC(=O)CCC(=O)OC1(C)C(=O)C=C2C=C(C3CC3)N(CCc3c[nH]c4ccccc34)C=C2C1=O (stereo unspecified)	i	0.27
COc1ccc(OC)c(C2C(C(=O)Nc3ccccc3OC)=C(C)Nc3nc(CCCO)nn32)c1 (stereo unspecified)	i	-1.4
CCCCNC(=O)c1ccc(N2CCC3(CC2)OCCO3)c([N+](=O)[O-])c1	i	-2
On1c(-c2ccccc2Cl)nc2ncccc21	i	0.88
COC(=O)C1C(=O)N2CCCSC2=C(C#N)C1c1cccs1 (stereo unspecified)	i	-0.04
O=C(CSc1nc2ccccc2o1)Nc1nccs1	i	-0.08
COc1ccc(C(CNC(=O)c2cccc(S(=O)(=O)Nc3ccc(C)cc3)c2)N2CCOCC2)cc1 (stereo unspecified)	i	-0.37
Cc1ccc(NC(=O)CN(C)C(=O)C2CC(=O)N(Cc3ccccc3)C2)cc1 (stereo unspecified)	i	0.53
O=C1c2cccnc2C(Nc2ccccc2Br)N1Cc1ccco1 (stereo unspecified)	i	-1.5
COc1ccc(C2C3=C(N=C4SCC(=O)N42)c2ccccc2CC3)cc1OC (stereo unspecified)	i	-0.95
COc1cc(S(=O)(=O)NCc2ccncc2)c(OC)cc1Br	i	-0.48
CCOC(=O)C(Cc1cc(C(C)=O)ccc1OC(C)C)C(=O)OCC	i	1.7
COC(=O)CSc1nnc(-c2ccccc2OC)n1-c1ccc(C)cc1	i	0.05
CC1Oc2cc3oc4c(O)c5c(cc4c(=O)c3c(O)c2C1(C)C)C=CC(C)(C)O5 (stereo unspecified)	i	-0.73
C1=CC2CCC1ON2c1ccccc1 (stereo unspecified)	i	2
COc1ccc(CN(C)Cc2nc(Cc3ccccc3Cl)no2)cc1OC	i	-0.87
Cc1ccc(S(=O)(=O)Nc2ccccc2C(=O)Nc2nc(-c3ccc(F)cc3)cs2)cc1	i	2.7
O=c1ccc2ccc(Oc3ccc(Cl)cc3[N+](=O)[O-])cc2o1	i	0.01
Cc1ccc(C(O)(COC(=O)C(C)C)COC(=O)C(C)C)c(O)c1	i	0.02
CS(=O)(=O)N(Cc1ccccc1)c1ccccc1C(=O)Nc1ccccc1C(=O)NCc1ccco1	i	-0.82
c1ccc(C2Nc3ccccc3-c3nc4ccccc4n32)nc1 (stereo unspecified)	i	-0.62
CCC(C)NC(=O)c1cc(CC(C)C)on1 (stereo unspecified)	i	0.85
Brc1ccc(/C=N/N2CCN(C3c4ccccc4-c4ccccc43)CC2)s1	i	-0.07
CC1CC(C)CN(S(=O)(=O)N2CCCC(C(=O)NCCc3ccccc3)C2)C1 (stereo unspecified)	i	1.7
CCCc1nnc2n1N=C(c1ccc([N+](=O)[O-])cc1)CS2	i	-0.04
COc1ccc(OC)c(S(=O)(=O)NCC(c2ccco2)S(=O)(=O)c2ccccc2)c1 (stereo unspecified)	i	-0.61
Cc1ccc(C)c(OCC(O)CN2CCN(CCN3C(=O)c4cccc5cccc(c45)C3=O)CC2)c1 (stereo unspecified)	i	-0.01
COc1ccccc1-c1c(C)nn2c(-c3ccccc3)cc(C)nc12	i	-0.71
CCOC(=O)N1CCC2(CC1)C(C#N)=C(N)Oc1c2sc2nc(C)cc(C)c12	i	-0.24
Cc1cc([N+](=O)[O-])cc2c1NCC1CC=CC21 (stereo unspecified)	i	-2.8
CCn1ncc(C2=NOC(C(=O)Nc3ccc4c(c3)OCO4)C2)c1C (stereo unspecified)	i	1.3
CN(C)CCCN(C(=O)c1ccc(S(=O)(=O)N2CCCc3ccccc32)cc1)c1nc2ccc(F)cc2s1	i	1.1
CCOC(=O)C1=C(NC#N)OC(C)=C(C)C1c1ccc(O)cc1 (stereo unspecified)	i	0.33
CCn1c(=O)c(=O)[nH]c2cc(C(=O)NCC3CCCCC3)ccc21	i	1.7
CC(=O)Nc1ccc(S(=O)(=O)N2CCN3CCCC3C2)cc1 (stereo unspecified)	i	-1.8
Cc1cc(C)nc(SCc2nnc(SCC(=O)Nc3c(C)cccc3C)o2)n1	i	1.1
CCOc1ccccc1NC(=O)C(CC(C)C)NC(=O)C1CCC(C)CC1 (stereo unspecified)	i	1.5
CCn1cc2nc(SCC(=O)Nc3ccc(OC)c(OC)c3)n(Cc3ccc(OC)cc3)c(=O)c2n1	i	-3.1
More entries:
SMILES	KCNQ2 block	KCNQ2 block baseline
COc1ccc(CN(C)CC(=O)Nc2cc(OC)c([N+](=O)[O-])cc2C)c(OC)c1	i	0.91
CC(=O)NN1C(=O)/C(=C/c2ccc(Br)o2)SC1=S	i	1.1
COC(=O)c1nccc2c1[nH]c1ccccc12	i	1.1
Cc1ccc(-c2nc(N)n(C(=O)Cc3ccccc3)n2)cc1	i	0.8
O=C(O)CN1C(=O)CCS(=O)c2ccccc21 (stereo unspecified)	i	0.86
CC(C)(C)c1ccc(OCc2ccc(C(=O)Nc3cccnc3)o2)cc1	i	0.88
CSc1ccccc1NC(=O)c1csc(C)c1	i	0.55
O=C(Oc1ccc2ccc(O)cc2c1)c1ccccc1Cl	i	0.05
COC(=O)c1ccccc1NC(=O)Cn1nc2n(C)c3ccccc3n2c(=O)c1=O	i	0.88
CSc1ccc(-c2nc(CSCC(=O)NCCCN3CCCC3=O)c(C)o2)cc1	i	0.78
Cc1cc(C)c(OCC(=O)OC(C)C(=O)N2CCc3ccccc32)c(C)c1 (stereo unspecified)	i	0.48
COc1ccc2nc(NC(=O)CSc3nnc(N)s3)sc2c1	i	-0.2
N#C/C(=C(/O)CCCl)c1ccccn1	i	-1.3
CC(C)(C)c1ccccc1OCC(=O)NCc1ccccc1	i	-1.5
O=C(Nc1cccc(/C=C/c2ccccn2)c1)c1ccc(-n2cncn2)c([N+](=O)[O-])c1	i	0.18
O=C1OCCN1C(=O)[C@H]1[C@H](c2ccc(F)cc2)C(c2ccc(F)cc2)=NN1c1ccccc1	i	1.4
COc1cc(-c2nc(=S)[nH][nH]2)cc(OC)c1OC	i	-1.5
O=C(Nc1cc(Cl)ccc1Cl)c1ccco1	i	-0.06
CCn1nccc1C(=O)Nc1ccccc1OC	i	0.95
OCC(CO)(CO)NCc1ccc(-c2ccccc2)cc1	i	1.3
CC1=C(C(=O)Nc2ccccc2)C(c2ccc(C)o2)N2C(=O)CSC2=N1 (stereo unspecified)	i	0.28
COc1ccc2c(c1)c(CCN1C(=O)c3ccccc3C1=O)cn2C(=O)c1ccco1	i	-0.4
COC(=O)CNc1nc(OC)nc(N(C)C)n1	i	-0.54
Cc1cnc(NC(=O)CN2C(=O)C3CC=CCC3C2=O)s1 (stereo unspecified)	i	0.73
Cc1nn(C)cc1CNC(=O)c1cc2n(n1)C(C(F)(F)F)CC(c1cccs1)N2 (stereo unspecified)	i	0.73
CC(C)C[C@H](NC(=O)c1nc[nH]c1C(=O)NC1CCNCC1)C(=O)OCc1ccccc1	i	3.3
CCC(=O)Nc1ccc(NC(=O)c2ccc3c(c2)OCO3)cc1	i	0.02
Cc1ccc(/C=N/N2C(=O)c3ccccc3NC2c2ccc(C)cc2)cc1 (stereo unspecified)	i	0.65
CC(NC(=O)c1c(O)c2ccccc2n(C)c1=O)c1ccccc1 (stereo unspecified)	-5.8*	0.19*
Cc1ccc(C)c(NC(=O)C2CCCN2C(=O)NC2CCCCC2)c1 (stereo unspecified)	i	1.7
CCOC(=O)Cc1csc(NC(=S)NC(=O)c2ccccc2)n1	i	2
O=C(NC1CCCCCCC1)c1cnccn1	i	0.99
CCC(C)(C)NC(=O)CN(C(=O)CNS(=O)(=O)c1ccccc1)c1ccccc1	i	0.36
CCc1nnc(NC(=O)C2CC(=O)N(Cc3ccccc3)C2)s1 (stereo unspecified)	i	0.17
Cc1ccc(NC(=O)COc2ccccc2C=O)cc1Cl	i	-0.5
CN1C(C(=O)NCc2ccc(OC(F)(F)F)cc2)CC2Cn3c(nc4cc5ccccc5cc43)C21 (stereo unspecified)	i	-0.37
CCc1sc(C(=O)Nc2ccc(F)cc2C)cc1C	i	0.74

Some of the compounds tested. The share of hits here may be higher or lower than overall.
